# NPYLR7 ag – mosquito NPYLR7 agonism. HEK293T NPYLR7/Galpha15, GCaMP6s calcium fluorescence. activation, % at 10 µM. hit rate 0.15% among 270,000. AID 1259423; in the data active = activation above about 40%;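 also: 0% = vehicle and 100% = reference agonist at the receptor; some compounds past the cut are filed as inactive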
# NPYLR7 ag max-min – also measured in NPYLR7 ag; calls as there; activation, %; measured here: Max-Min RFU normalised activation; some inactives read as strong as hits;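 span of the calcium signal over five minutes; 0% = vehicle and 100% = native peptide agonist; compound fluorescence can raise it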
# An asterisk follows results filed as active; & = joins results of further samples. The list is partial. The share of hits here may be higher or lower than overall.
SMILES,NPYLR7 ag,NPYLR7 ag max-min
COc1cc(C)ccc1Oc1cc(N2CCN(C(=O)c3cccc([N+](=O)[O-])c3)C(C)C2)ncn1 (stereo unspecified),12.8,16.2
COc1ccc2c(=O)c(-c3cscn3)coc2c1,5.6,6.9
Cc1ccc([N+](=O)[O-])cc1N1C(=O)C2C3C=CC(C4CC34)C2C1=O (stereo unspecified),-10.9,-14.7
COc1ccc(C)cc1NC(=O)CSc1nnc(COc2ccc3c(c2)CCCC3)o1,-1.4,-4.9
COCC(=O)N1CCC2(CCCN(Cc3cccc(OC)c3OC)C2)C1 (stereo unspecified),7.1,5.0
CCc1nccc(CN2CCCC(c3n[nH]c(=O)n3-c3ccccc3)C2)n1 (stereo unspecified),2.5,-0.2
CN1CCCC1CNC(=O)CCSc1ccc(Br)cc1 (stereo unspecified),0.6,0.0
O=C(NN=Cc1cc(Br)ccc1O)c1ccccc1,-4.7,-7.8
Cc1onc(-c2ccccc2Cl)c1C(=O)Nc1ccc(C(N)=O)cc1,0.4,-1.9
O=C(NC1CC1)c1cccc(OS(=O)(=O)c2cccnc2)c1,-1.6,5.9
CCCc1nc2ccc(Cl)cn2c1Nc1c(C)cccc1C,4.5,18.8
COc1ccc(OC)c(CN2CCCn3cccc3C2c2cc(F)c(F)cc2F)c1 (stereo unspecified),9.0,24.2
Cc1ccc(CN2C(=O)c3ccccc3NC2c2ccc(OCC(N)=O)cc2)cc1 (stereo unspecified),2.8,8.9
Cc1cc(C)cc(-c2nnc(SCc3cc(C)on3)o2)c1,1.2,13.6
O=C(NCCNc1nc(-c2ccco2)nc2ccccc12)c1ccccc1Cl,-3.9,-0.6
CCN(C(=O)CSc1ccc(C(=O)N2CCCC2)cn1)c1ccccc1C,-0.9,-2.2
Cc1ccc(Cc2nsc(N(CC(=O)N3CCN(Cc4ccc5c(c4)OCO5)CC3)Cc3ccccc3)n2)cc1,-14.8,-16.9
CS(=O)(=O)NC1CCN(c2nc(-c3ccccc3)nc3c2CCC3)CC1,16.8,9.5
O=C(NCC1CCCCC1)C(C1CCCC1)N1CCN(C(=O)C2CC2)CC1 (stereo unspecified),-6.3,1.3
CSCc1cc(C(=O)Nc2ccc(CC(N)=O)cc2)ccc1F,3.3,0.7
Cc1noc(C)c1Cn1c(C)c(C(=O)NCc2ccc([N+](=O)[O-])cc2)sc1=O,34.0,19.3
COc1ccccc1-c1onc(C)c1C(=O)NCCc1cccc(Cl)c1,5.9,16.8
OC(Cc1ccccc1)CN(Cc1ccccc1F)CC1CC(c2ccccc2)=NO1 (stereo unspecified),-3.5,-2.0
COc1ccc(COn2c(=O)c(-c3ccccc3Cl)[n+]([O-])c3ccccc32)cc1,3.1,-8.0
CSc1nnc(C)c(=O)n1COC(=O)c1ccccc1,2.2,-0.3

# Continued.
SMILES,NPYLR7 ag,NPYLR7 ag max-min
CC1(C(=O)NS(=O)(=O)c2cccs2)CCN1C(=O)Cc1ccccc1 (stereo unspecified),-0.4,-3.5
CCN(CC)C(=O)[C@@H]1C[C@H](N)CN1C(=O)Cc1ccc(SC)cc1,1.1,-0.7
O=C(Nc1ccc([N+](=O)[O-])cc1)c1c(O)c2ccccc2[nH]c1=O,-0.1,-0.8
CC(NC(=O)c1cc(Cl)ccc1F)c1ccc(S(C)(=O)=O)cc1 (stereo unspecified),1.0,1.3
CC(C)C(=O)NCc1nc2c(cnn2-c2ccccc2)c(=O)[nH]1,-0.2,-2.1
CC1=C(C(=O)OC2CCCCCC2)C(c2ccc(Cl)c(Cl)c2)NC(=O)N1C (stereo unspecified),-2.3,-10.6
Cc1cccc(NC(=O)CSc2nnc(CNC(=O)c3ccco3)n2-c2ccc(F)cc2)c1,-4.2,-11.5
COc1cc(C2C(C(=O)OC(C)C)=C(C)NC3=C2C(=O)CCC3)cc(OC)c1OC (stereo unspecified),4.2,-2.4
CCOC(=O)c1cnc2c(C#N)cccc2c1Nc1ccc(Cl)cc1,0.8,7.2
Cc1ccc(NC(=O)CC(=O)N(C)Cc2cn[nH]c2-c2ccc(F)cc2)c(C)c1,-1.0,-5.9
Cc1nc(SCC(=O)N(C(C)C)C(C)C)n(CC(C)C)c1C,6.3,4.8
CC(=O)Nc1ccc(S(=O)(=O)NCc2ccc3c(c2)cc(C)n3C)cc1,-2.1,1.2
CN(C)c1nc2c(c(NCCCCc3ccccn3)n1)CCNC2,2.1,2.3
COc1cccc2ccc(CN3C[C@@H]4C[C@H]3C(=O)N4c3ccccc3F)nc12,12.0,7.2
COc1cccc(OCc2ccccc2)c1C(=O)N1CCN(c2ccc(C(C)=O)cc2)CC1,-13.0,-18.6
COc1ccc(-c2csc(=Nc3ccc(F)cc3)n2CC2CCCO2)cc1 (stereo unspecified),-5.9,-10.9
CCc1cccc(NC(=O)N(CC(=O)N(CCc2c[nH]c3ccccc23)Cc2ccc(F)cc2)C2CC2)c1,29.8,22.0
COc1cccc(N2CCN(C(=O)c3ccco3)C(C)C2=O)c1 (stereo unspecified),12.7,11.1
CCN(CC)c1ccc2cc(C(=O)Nc3ccccc3)c(=N)oc2c1,-4.7,-10.7
CSc1ncc(CNCc2c(F)cccc2Cl)c(N2CCN(c3ccccc3F)CC2)n1,15.7,12.9
CCc1nn(-c2ccc(F)cc2)c(N2CCN(C(C)C)CC2)c1CN(CC(C)C)C(=O)C1C[C@H]1c1ccccc1 (stereo partly specified),29.6,33.3
COc1nc2ccccc2cc1-c1cncc(C(N)=O)c1,5.5,1.5
O=C(Nc1ccc(Cl)cc1)c1cnn2c1NC(c1ccco1)CC2C(F)(F)F (stereo unspecified),-7.1,-8.4
N#CC=CN1CCN(C(c2ccccc2)c2ccccc2)CC1,0.3,-0.4
Cc1cc(Cl)ccc1OC(C)c1nnc(SCc2nccn2Cc2ccccc2)o1 (stereo unspecified),21.6,24.3

# In a second layout: results already given
> O=C(Nc1ccc(Cl)cc1)c1cnn2c1NC(c1ccco1)CC2C(F)(F)F (stereo unspecified)
  NPYLR7 ag: -7.1	NPYLR7 ag max-min: -8.4

> Cc1ccc(NC(=O)CC(=O)N(C)Cc2cn[nH]c2-c2ccc(F)cc2)c(C)c1
  NPYLR7 ag: -1.0	NPYLR7 ag max-min: -5.9

> Cc1cc(Cl)ccc1OC(C)c1nnc(SCc2nccn2Cc2ccccc2)o1 (stereo unspecified)
  NPYLR7 ag: 21.6	NPYLR7 ag max-min: 24.3

> COc1ccc(-c2csc(=Nc3ccc(F)cc3)n2CC2CCCO2)cc1 (stereo unspecified)
  NPYLR7 ag: -5.9	NPYLR7 ag max-min: -10.9

# Following part.
SMILES,NPYLR7 ag,NPYLR7 ag max-min
COc1cccc(CSc2nnc(CNC(=O)c3cc(C(F)(F)F)cc(C(F)(F)F)c3)n2-c2ccc(C)cc2)c1,24.4,24.6
CN1CCC(N(C)S(=O)(=O)c2cc(C(=O)O)c(Cl)cc2Cl)CC1,6.8,1.2
CC1CCCN(Cc2nc3c(c(=O)n(C)c(=O)n3C)n2CC(=O)c2ccccc2)C1 (stereo unspecified),0.6,-2.6
Cc1ccc(C(=O)N2C(C(=O)NCc3ccccn3)COC23CCN(C(=O)C2CC2)CC3)cc1 (stereo unspecified),5.0,17.1
O=C(CNC(=O)N1CC=C(c2cccc3ccccc23)CC1)N1CCCC1,7.7,2.4
CC1=NOC(Cc2ccccc2)C(=O)N1Cc1ccc(F)cc1 (stereo unspecified),2.8,0.2
CC(=O)[C@@]12O[C@](C)(c3ccccc3)O[C@@H]1CC1C3CCC4=CC(=O)CC[C@]4(C)C3CC[C@@]12C (stereo partly specified),-7.6,-6.4
COc1ccc(CNC(=O)NC2CCCc3c2cnn3C)cc1 (stereo unspecified),4.2,2.5
CCCn1cc(NS(=O)(=O)c2ccc(F)cc2Br)ccc1=O,5.0,4.5
CC(C)(C)S(=O)(=O)c1ccsc1Br,-7.8,-14.5
Cn1c(=O)[nH]c(=O)c2c1nc(SCCO)n2CCCc1ccccc1,6.3,2.6
CCCc1cc(C(=O)Nc2cc(C)on2)no1,-2.6,0.4
Cc1cc2c(SCC(=O)c3ccc(Cl)cc3)ncnc2s1,-10.7,-13.8
COc1cc(C)c(S(=O)(=O)N(C)C2CCC(CO)CC2)cc1OC (stereo unspecified),-6.5,-6.5
CN(C)c1ccc(C(=O)N2CCN(c3cccc(Cl)c3)CC2)cc1,2.4,0.7
C=CCNC(=O)c1cc(Br)ccc1F,5.1,3.8
O=C(Nc1ccc(NC(=O)C2CC23CCC3)cc1)C1CC12CCC2 (stereo unspecified),0.0,-0.6
O=c1cc(CSc2nn(-c3ccc(F)cc3)c(=S)s2)c2ccc(O)cc2o1,7.0,8.1
O=C(O)C1CC(=O)N(CCC2=CSC3=NCCCN23)C1 (stereo unspecified),20.7&2.2,12.0&-0.3
CC(O)CN(Cc1ccco1)Cc1c(-c2ccccc2)nn(C)c1Oc1ccccc1F (stereo unspecified),-6.2,-1.2
CC(C)(C)C(=O)C=C1NC(=O)CS1,8.8,6.4
O=C(CSc1nnc(-c2ccc(Cl)cc2)n1-c1ccccc1)N/N=C\c1ccco1,7.0,13.3
O=C(c1csc(-c2cccs2)n1)N1CCC2(CC1)NCCNC2=O,3.8,3.3
CCCNc1nc(Nc2ccc(OCC)cc2)c2cnn(-c3ccccc3)c2n1,0.5,-0.3
CC(c1ccccc1)N1CCC(NCc2ccncc2)C1 (stereo unspecified),10.0,13.8

# More compounds follow:
SMILES,NPYLR7 ag,NPYLR7 ag max-min
N#Cc1cc2nnn(-c3ccccc3)c2cc1C#N,7.5,10.2
Cc1ccccc1CSc1nc(Oc2ccccc2Cl)cc(C(F)(F)F)n1,2.7,17.8
COC(=O)c1cc(NC(=O)Cn2nnc(-c3ccccc3)n2)cc(C(=O)OC)c1,-2.7,-2.5
CCOC(=O)Cn1c(=O)c2c(nc3n2CC(C)CN3CCc2ccccc2)n(C)c1=O (stereo unspecified),5.5,6.1
CCNC(=O)C1CCN(C(=O)CSc2n[nH]c(CC)n2)C1 (stereo unspecified),8.2,3.3
CCCCOc1ccc(C(=O)Oc2coc(CSc3nccn3C)cc2=O)cc1,-5.5,-8.9
COc1ccc(-c2cn(CC3CCCN(c4ncccn4)C3)nn2)cc1 (stereo unspecified),5.5,20.3
CC(c1ccc(F)cc1)N(C)C(=O)COc1ccc(CC(=O)O)cc1 (stereo unspecified),7.0,3.7
CCOC1(OCC)N=C(N)C2(C#N)C(c3ccc(F)cc3)C12C#N (stereo unspecified),3.4,-1.5
CC(C)c1cc(C(C)C)n(C2CCN(C(=O)c3cccc(OC(F)F)c3)CC2)n1,-1.1,-2.2
O=C1OCCC1Sc1nccn1C1CC1 (stereo unspecified),-4.7,-9.9
O=C(NCc1cn2ccsc2n1)C1CC1c1ccccc1C(F)(F)F (stereo unspecified),1.7,30.2
CCC(C(=O)NCCOC)n1c(=O)n(-c2ccccc2F)c(=O)c2ccccc21 (stereo unspecified),17.2,23.7
CCOC(=O)C1CC2(CCOCC2)N2CCC(=O)N12 (stereo unspecified),5.0,16.4
CC(C)CNC(=O)C1COC2(CCN(C(=O)c3ccc(Cl)c(Cl)c3)CC2)N1C(=O)c1ccco1 (stereo unspecified),-2.8,1.6
CC1(C)O[C@@H]2C[C@@](OCc3cccc(F)c3)(C(=O)NCCCn3ccnc3)CC(OCc3ccccc3C#N)[C@@H]2O1 (stereo partly specified),-5.2,5.1
Cc1ccccc1NC(=O)CN1CCCN(Cc2ccccc2)CC1,0.2,-0.5
N#CC(=CC(Br)=Cc1ccccc1)C(N)=S,-1.9,-4.2
Cc1ccc2oc(C(=O)N3CCCC(C(=O)c4nccn4C)C3)c(C)c2c1 (stereo unspecified),-1.4,-3.9
CCN(CC)C(=O)Oc1ccc2c(ccn2Cc2ccccc2OC(F)(F)F)c1-c1cc(C)cc(C)c1,15.1,10.9
CC(C)N(Cc1nccn1C)C(=O)c1ccc(OC2CCN(Cc3ccccn3)CC2)cc1,-5.8,-7.0
CC1CN(C(=O)CNC(=O)c2ccc(C(C)(C)C)cc2)CC(C)O1 (stereo unspecified),-13.4,-18.0
O=C1c2ccccc2C(=O)c2c1oc1c3c(ccc21)OCN(CCCn1ccnc1)C3,1.7,7.5
COc1cccc(C(=O)Nc2cc(-c3ccc(OC)nn3)ccc2C)c1,-0.5,27.5
Cc1nn(C)c(C)c1NC(=O)c1cccc(CN2CC[C@H](O)C2)c1,4.1,-0.1

# Additional results follow:
SMILES,NPYLR7 ag,NPYLR7 ag max-min
CCOC(=O)N1CCN(c2c(NCCCN3CCN(CC)CC3)c(=O)c2=O)CC1,9.5,7.4
CCN(CC)c1onc(-c2ccccc2)c1CN(Cc1ccc(F)cc1)C(=O)c1ccco1,4.0,24.6
Cn1c(Cc2c[nH]c3ccccc23)nnc1SCC(=O)O,4.6,2.8
O=c1c(Cl)c(Cl)cnn1-c1ccc(NC2CC2)c(Cl)c1,-6.5,-7.6
COc1cc(C=NNC(=O)c2sc(N)c(C#N)c2C)c([N+](=O)[O-])cc1OCc1ccccc1,4.4,1.2
CC(=O)c1cc(CN2CCC(C(=O)Nc3ccc(Oc4ccccc4)nc3)CC2)cs1,13.2,5.3
COC(=O)CCS(=O)(=O)Nc1ccc(C)cc1,13.7,8.4
Cc1nc(NCCNC(=O)Nc2ccc3c(c2)OCO3)cc(N2CCOCC2)n1,4.9,1.3
COc1ccc(Nc2nnc(SCC(=O)Nc3c(C)n(C)n(-c4ccccc4)c3=O)s2)cc1,0.1,-0.1
Cc1ccccc1-c1cc(O)c2c(c1)CN(CCCn1nnnc1C)CCO2,-1.8,0.5
CC1CN(c2cc(Cl)nc(SCC(=O)N3CCN(Cc4ccc5c(c4)OCO5)CC3)n2)CCN1C(=O)c1ccc(Cl)cc1 (stereo unspecified),-6.2,-3.7
C=CCSc1nc2c(c(=O)[nH]1)C(c1ccc(Cl)cc1)C(C(=O)OCC)=C(C)N2 (stereo unspecified),-2.5,-6.3
Cc1nc(CN2CCN(C(=O)C3(c4cccc(F)c4)CCOCC3)CC2)no1,-0.6,-4.6

# Profiles as entered above. Values in the order: NPYLR7 ag, NPYLR7 ag max-min
# Profile of `Cc1ccccc1-c1cc(O)c2c(c1)CN(CCCn1nnnc1C)CCO2` : -1.8, 0.5
# Profile of `COc1cc(C=NNC(=O)c2sc(N)c(C#N)c2C)c([N+](=O)[O-])cc1OCc1ccccc1` : 4.4, 1.2
# Profile of `Cc1nc(CN2CCN(C(=O)C3(c4cccc(F)c4)CCOCC3)CC2)no1` : -0.6, -4.6
